Screening results deposited in PubChem by National Center for Advancing Translational Sciences (NCATS).
Cruzain inh Det: cruzain (T. cruzi) inhibition with detergent; 0.43% of 200,000 active; purified cruzain, Z-FR-AMC fluorescence, 0.01% Triton; AID 1478; Potency, µM, without a hit: max response, negative = inhibition, usual class: inhibitors; P25779;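 further: plate controls were neutral wells for no effect and buffer without enzyme for full effect; nearly all actives have a fitted effect of over 40% in size; top concentration of the series not given in the record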
Target sequence (P25779 123-467 limits assumed): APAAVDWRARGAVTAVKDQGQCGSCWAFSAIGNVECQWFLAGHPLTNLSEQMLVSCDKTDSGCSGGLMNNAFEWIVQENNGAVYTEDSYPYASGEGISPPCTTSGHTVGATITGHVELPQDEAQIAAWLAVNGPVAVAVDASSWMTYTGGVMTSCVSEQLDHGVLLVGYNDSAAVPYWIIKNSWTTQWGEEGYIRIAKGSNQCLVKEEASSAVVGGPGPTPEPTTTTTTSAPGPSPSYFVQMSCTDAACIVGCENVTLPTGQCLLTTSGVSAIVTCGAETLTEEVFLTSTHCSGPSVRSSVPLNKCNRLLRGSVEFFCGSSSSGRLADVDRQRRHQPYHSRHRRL
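Read-out: AMC fluorescence (360 nm excitation, 450 nm emission), four reads over 2 min, first-to-third difference used. Conditions: cruzain 1.5 nM, Z-FR-AMC 2 uM, pH 5.5 acetate, 5 mM DTT, 0.01% Triton X-100.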
Lassa entry inh: inhibitors of Lassa virus binding or cell entry | Potency, µM (series often up to 37.9 µM), without a hit: top-dose activity change, negative = inhibition, actives largely listed as inhibitors | Lassa virus pseudotype entry inhibition, cell reporter; control for the full effect not named in the record | 1.2% of 300,000 active; active means well fitted inhibition curve with a large enough effect; inconclusive means small, poorly fitted or top-dose-only effect, or effect the other way; inactive means flat fitted curve, though single readings scatter; tested in HEK293 cells; further: on the % scale 0 is the no-effect control and ±100 the full control effect; nearly all actives have a fitted effect of over 50% in size; luciferase read-out
MARV entry inh: blocks Marburg virus binding to or entry into cells; Marburg virus pseudotyped entry inhibition, cell reporter; control for the full effect not named in the record; about a third of the inactives were read at about 46 µM; Potency, µM (top dose mostly 37.8 µM), inactives show at the top dose activity change, negative = inhibition, hits mostly inhibitors; 1.8% of 300,000 active; AID 540276; active = well fitted inhibition curve with a large enough effect; inconclusive = small, poorly fitted or top-dose-only effect, or effect the other way; inactive = flat fitted curve, though single readings scatter; tested in HEK293 cells; about a fifth of its hits are not listed in these tables; further: on the % scale 0 is the no-effect control and ±100 the full control effect; luciferase read-out
NS1 function inh: blocks influenza NS1 protein function; Potency, µM (highest dose often 46.1 µM), without a hit: at the highest dose activity, positive = more growth; S. cerevisiae slowed by influenza A NS1, growth recovery by OD600; 0.4% of 270,000 active; active means well fitted rising curve with a large enough effect; inconclusive means small, poorly fitted or top-dose-only effect; inactive means no such curve, though single readings can be large or run the other way; further: nearly all actives have a fitted effect of over 50% in size
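S. cerevisiae expressing influenza A NS1, grown in glucose, washed, then diluted 1:100 into pH 6.0 -URA galactose medium with 23 nl compound. Growth recovery read as OD600; NS1-free strain serves as control.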
Cruzain noTriton: cruzain (T. cruzi) inhibition without detergent. purified cruzain, Z-FR-AMC fluorescence, no detergent. Potency, µM, inactives show max response, negative = inhibition, most hits filed as inhibitors. 2.3% of 200,000 active. AID 1476;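 further: plate controls were enzyme without inhibitor for no effect and buffer without enzyme for full effect; nearly all actives have a fitted effect of over 40% in size; top concentration of the series not given in the record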
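Purified cruzain at 1.5 nM, pre-incubated 15 min with compound at room temperature in 100 mM sodium acetate pH 5.5, 5 mM DTT, 0.00005% Triton X-100. Reaction started with 2 uM Z-FR-AMC; AMC fluorescence increase over 60 s gives rate.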
StopGo reporter: lowers the luciferase signal of an FMDV 2A StopGo reporter; Potency, µM (series often up to 57.9 µM), for the others: at the highest dose signal change, negative = less light; 1.2% of 410,000 active; AID 1159524; human cells with a luciferase reporter of 2A StopGo recoding; control for the full effect not named in the record; active = well fitted falling curve with a large enough effect; inconclusive = small, poorly fitted or top-dose-only effect; inactive = no such curve, though single readings can be large or run the other way; tested in HEK293T cells; further: on the % scale 0 is the no-effect control and ±100 the full control effect; nearly all actives have a fitted effect of over 45% in size; luciferase light after 4 h
SARS PLpro yeast: inhibitors of SARS-CoV papain-like protease in yeast | S. cerevisiae expressing SARS-CoV PLpro, growth rescue; control for the full effect not named in the record | Potency, µM (highest dose often 32.9 µM), inactives show top-dose activity, positive = growth rescue | 0.19% of 330,000 active | AID 485353; active means well fitted rising curve with a large enough effect; inconclusive means small, poorly fitted or top-dose-only effect; inactive means no such curve, though single readings can be large or run the other way; further: 0% is about no effect; nearly all actives have a fitted effect of over 55% in size; growth read by luminescence after 48 h
RE007 growth inh: less growth of the S. pombe RE007 Vpr strain. S. pombe RE007 Vpr strain, BacTiter-Glo ATP luminescence, 24 h; control for the full effect not named in the record. Potency, µM (highest dose often 92.2 µM), inactives show top-dose activity change, negative = less growth. 0.21% of 360,000 active; active = well fitted falling curve with a large enough effect; inconclusive = small, poorly fitted or top-dose-only effect; inactive = no such curve, though single readings can be large or run the other way;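 further: on the % scale 0 is the no-effect control and ±100 the full control effect; nearly all actives have a fitted effect of over 50% in size; the assay follows cell death caused by Vpr and the record does not say whether a fall means rescue or toxicity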
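Fission yeast RE007 carrying one integrated HIV-1 vpr copy, seeded at OD 0.01 in PMG+AL medium with 23 nL pinned compound. Grown 24 h at 30 degrees; viability read by BacTiter-Glo luminescence after 5 min.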
Numbers without * were called inactive; ? = inconclusive; · = no result given; [ ] = another dose, or the depositor's remark. Unless noted, the call rests on the fitted dose curve; in most records, active means well fitted curve in the direction sought with a large enough effect; inconclusive means small, poorly fitted or top-dose-only effect, or another doubt; inactive means no such curve, though single readings can be large; an effect the other way counts as inactive or inconclusive. Potency means the concentration at half of the fitted maximal effect.

SMILES | Cruzain inh Det | Lassa entry inh | MARV entry inh | NS1 function inh | Cruzain noTriton | StopGo reporter | SARS PLpro yeast | RE007 growth inh
Cc1ccc(Sc2c(O)c3ccccc3n(C)c2=O)cc1 | -3.9% | -0.9% | ? | -28.2% | 11.9% | -12.5% | -16.5% | -3.1%
O=C(NCCCN1CCOCC1)C1(c2ccccc2)CCOCC1 | 2.6% | 24.0% | 6.8% | -4.0% | -1.8% | 1.8% | -0.9% | -11.6%
O=S(=O)(c1ccc(Cl)cc1)c1nc(-c2ccco2)oc1SCc1ccccc1F | -26.7% | ? | ? | · | ? | 4.7% | · | ·
Cc1nn(Cc2ccc(F)cc2)c(C)c1NC(=O)c1cccnc1Cl | -4.4% | 19.0% | 2.7% | -1.3% | -8.4% | -13.2% | -10.3% | 1.5%
Nc1cccc2[nH]c(C(F)(F)F)nc12 | · | 9.1% | -8.8%[46.1 µM] | · | · | -18.8% | -9.1% | -18.8%
CCCCn1c(CCC)nc([N+](=O)[O-])c1Sc1ccc(Cl)cn1 | -6.4% | ? | ? | -14.4% | 16.9% | ? | 9.0% | 1.6%
O=C(CSc1nc2c(sc3ccccc32)c(=O)n1CCCC(=O)NC1CCCC1)Nc1ccc(F)cc1 | 1.5% | 16.1%[46.1 µM] | -2.2%[46.1 µM] | · | 0.2% | -4.6% | · | ·
COc1ccc(-c2nc3ccccc3o2)cc1NC(=O)Cc1ccc(Cl)cc1 | 0.3% | ? | 10.1%[46.1 µM] | · | -6.5% | -0.4% | · | ·
O=C(COc1ccc(C(=S)N2CCOCC2)cc1)Nc1ccccc1C(F)(F)F | · | · | 7.3%[46.1 µM] | 7.8% | · | -20.3% | 0.5% | -3.2%
CCCc1nc2sc3c(=O)n(N)cnc3c2c2c1COC(C)(C)C2 | -0.8% | · | · | -3.4% | 4.8% | · | -9.6% | ·
COc1ccc(CNC(=O)CCNC(=O)c2ccco2)cc1OC | · | ? | -11.9% | · | · | -13.9% | -0.3% | -23.0%
COCCCNC(=O)c1ccc([N+](=O)[O-])cc1 | · | -0.6%[46.1 µM] | 0.5%[46.1 µM] | · | · | 9.0% | -2.2% | 2.6%
O=C1NC(c2ccccn2)Nc2sc3c(c21)CCC3 (stereo not given) | -1.4% | 2.5% | 10.9% | -17.6% | 11.0% | 37.5%[activator] | 3.0% | ?
Cn1cc(CNC(=O)c2ccc(OC3CCN(Cc4ccccn4)CC3)cc2)cn1 | · | · | · | ? | · | -29.7% | 4.5% | 8.5%
CCOc1ccccc1CNS(=O)(=O)c1ccc2c(c1)oc(=O)n2C | -1.5% | · | · | -10.1% | -1.5% | 16.4% | 5.7% | -11.3%
CCc1nnc(NC(=O)c2cccc(NC(=O)C(C)C)c2)s1 | -0.3% | -5.0% | 3.1% | 14.5% | -3.2% | 51.4%[activator] | 1.1% | 10.8%
O=C(Cn1nc(-c2cccc([N+](=O)[O-])c2)c2ccccc2c1=O)NCC1CCCO1 (stereo not given) | · | -3.3%[46.1 µM] | 2.6%[46.1 µM] | · | · | 7.0% | 0.7% | -12.5%
CS(=O)(=O)N1CCC(C(=O)Nc2ccc(Cl)c(Cl)c2)CC1 | · | 10.0% | -1.9%[46.1 µM] | 0.2% | · | -19.7% | -0.1% | -15.6%
CS(=O)(=O)c1ccc(Cl)c(NC(=O)CCNC(=O)c2ccco2)c1 | · | · | · | 5.2% | · | -0.1% | -4.2% | 5.5%
Cc1ccc(OCC(=O)Nc2ccc(S(=O)(=O)N(Cc3ccccc3)c3ccccc3)cc2)cc1 | 1.5% | -3.6%[46.1 µM] | -21.0%[46.1 µM] | · | 7.94µM* | ? | · | ·
Cc1cc(=O)n2c3c(cccc13)CCC2 | 4.1% | 12.9% | -22.8% | -0.7% | -2.3% | -9.5% | -7.3% | -8.1%
Nn1c(SCC(=O)N2CCOCC2)nnc1-c1ccco1 | 2.7% | -1.9% | -3.9% | -0.9% | -7.8% | -3.2% | 0.1% | 8.3%
O=C(CCN1CC2CCC(CC2)C1)c1cccs1 | -1.9% | -13.0% | -3.8% | -1.4% | 8.7% | 25.1µM* | · | -12.2%
CCCC(=O)Nc1ccc(-c2nc3cc(C)c(C)cc3o2)c(O)c1 | -21.6% | 5.5% | ? | 2.5% | ? | 40.7%[activator] | 3.1% | 3.3%
Cc1ccc(N(CC(=O)NCc2ccc(Cl)cc2)S(=O)(=O)N(C)C)cc1 | 0.5% | ? | · | · | ? | -10.0% | · | ·
CN(C)c1ccc(/C=N/NC(=O)c2ccnn2C)cc1 | · | · | · | -7.4% | · | 43.0%[activator] | -2.0% | -13.2%
COc1ccc(C(=O)Nc2nnc(SCC(=O)Nc3ccc(NC(C)=O)cc3)s2)c(OC)c1 | · | · | · | -1.2% | · | 30.2%[activator] | 1.7% | -3.2%
O=C(Nc1ccc2nc3n(c(=O)c2c1)CCCC3)c1ccccc1F | · | · | · | -9.6% | · | 48.2%[activator] | -1.7% | -15.5%
O=S(=O)(Cc1ccc(Cl)cc1)N1CCN(c2ncccn2)CC1 | · | 3.0% | 0.6% | 13.2% | · | -9.8% | -1.2% | 1.3%
CC(CC(=O)Nc1ccc(F)c([N+](=O)[O-])c1)c1ccccc1 (stereo not given) | -3.7% | 23.0% | -10.9% | -29.7% | 0.4% | -22.9% | ? | -2.6%
O=C(O)c1ccc(N/N=C/c2ccc(-c3ccccc3Cl)o2)cc1 | · | ? | ? | 5.5% | · | ? | -2.3% | ?
CCCN(CCC)S(=O)(=O)c1cccc(C(=O)N=c2sccn2C)c1 | · | -11.2% | -19.9% | 8.0% | · | -10.1% | 8.3% | 2.4%
NC(=O)C1(Nc2ccc(-c3ccc(Br)cc3)cc2)CCCC1 | · | 15.8% | ? | · | · | 11.0% | · | 20.3%
O=C(CCC1CCCN(C(=O)C2=CCCCC2)C1)N1CCN(c2ccccn2)CC1 (stereo not given) | · | -13.7% | -20.6% | 2.9% | · | ? | 0.8% | 19.1%
Cc1cc(NC(=O)CCCC(=O)Nc2ccc(F)cc2)no1 | -2.0% | 13.2% | 18.2% | -1.7% | -3.2% | 8.7% | -7.2% | 3.7%
COCCn1nnnc1C(c1ccc(OC)c(OC)c1)N1CCN(C(=O)c2ccco2)CC1 (stereo not given) | · | · | 0.4%[46.1 µM] | -8.7% | · | -9.4% | -17.5% | 20.6%
Cc1ccc(C)c(N2CCN(S(=O)(=O)c3c(C)[nH]c(C)c3C(=O)N3CCCC3)CC2)c1 | · | 10.6%[46.1 µM] | ? | -3.5% | · | 6.7% | 1.1% | -7.4%
COC(=O)c1c(NC(=O)c2ccco2)sc(C(=O)Nc2ccc(F)cc2)c1C | -13.3% | -11.2% | -28.2% | -36.0% | 15.1% | · | 2.7% | 5.1%
O=C(N/N=C/c1cccnc1)c1ccc(NC(=O)c2ccccc2Cl)cc1 | · | 0.2% | 9.1%[46.1 µM] | -1.6% | · | -23.6% | 2.9% | 0.9%
c1ccc(CNC2CN3CCC2CC3)cc1 (stereo not given) | · | 1.5%[46.1 µM] | -7.4%[46.1 µM] | · | · | -4.9% | · | 13.8%
Cc1cc(C)n(-c2ccc(C(=O)OCC(=O)NCc3ccc(Cl)cc3)cc2)n1 | -3.6% | ? | 2.5% | 5.5% | -4.2% | -12.3% | 20.2% | 11.9%
O=S(=O)(c1ccc(NC(=S)NCc2ccc(F)cc2)cc1)N1CCOCC1 | · | -2.6% | -5.4% | 14.2% | · | 32.4%[activator] | 3.2% | -10.4%
O=C(OCC(=O)N1CCN(C(=O)COC(=O)c2ccncc2)CC1)c1ccncc1 | 2.6% | -1.7% | 3.0% | -28.8% | -1.9% | 16.9% | 1.6% | -1.2%
CN1CCN(C(=O)c2cc(=O)c3cc(Cl)cc(Cl)c3o2)CC1 | · | 8.4%[46.1 µM] | 2.9%[46.1 µM] | -1.6% | · | -7.4% | -0.6% | 10.4%
COC(=O)C1CN(C(=O)C(C)Oc2cc(C)ccc2C(C)C)c2ccccc2O1 (stereo not given) | · | 14.8% | ? | 5.6% | · | -26.0% | -6.5% | 15.0%
CC(O)(CS(=O)(=O)Cc1ccccc1)c1ccc(Cl)cc1 (stereo not given) | · | · | · | -1.1% | · | 2.6% | -0.9% | 5.8%
Cc1csc(SCC(=O)NCc2cccs2)n1 | 9.7% | -10.3% | ? | 1.3% | 0.2% | · | -9.6% | 11.1%
COc1ccc(-c2ccc(/C=N/NC(=O)c3cccnc3)o2)c([N+](=O)[O-])c1 | -17.3% | 0.3% | -25.8% | -7.8% | -24.0% | -18.8% | -2.4% | 14.3%
Cc1cc(C)c2c(n1)sc1c(=O)n(Cc3ccccc3Cl)nnc12 | -3.8% | 25.1% | 7.0% | 5.7% | ? | -6.8% | -6.7% | -4.7%
COCCCNC(=O)c1ccc2c(c1)nc1n2CCCCC1 | 0.8% | 27.2%[46.1 µM] | · | · | -13.6% | 14.5% | · | ·

(cont.)
SMILES | Cruzain inh Det | Lassa entry inh | MARV entry inh | NS1 function inh | Cruzain noTriton | StopGo reporter | SARS PLpro yeast | RE007 growth inh
Cc1ccc(NC(=O)COC(=O)C2CSC3(C)CCC(=O)N23)cc1S(=O)(=O)N1CCOCC1 (stereo not given) | · | · | · | -2.4% | · | 40.8%[activator] | 0.0% | -4.0%
Cc1ccc(NC(=O)CSc2nnc(-c3ccncc3)o2)cc1C | · | ? | ? | 2.2% | · | -3.9% | -0.4% | 4.1%
Cc1noc(C)c1-c1nc(CSc2ccccc2)no1 | · | 10.8%[46.1 µM] | 7.9%[46.1 µM] | -5.4% | · | 12.4% | -1.5% | 4.7%
CCN(CC(=O)Nc1ccc(NC(C)=O)cc1)C(=O)CCN1C(=O)c2cccc([N+](=O)[O-])c2C1=O | · | 16.8% | -0.5% | 11.3% | · | -14.7% | -0.1% | -14.5%
Cc1cc(C)cc(NC(=O)c2cc(S(=O)(=O)NCCC3=CCCCC3)ccc2F)c1 | -26.2% | 19.2%[46.1 µM] | · | · | -1.8% | 3.3% | · | ·
COC(=O)c1cc(-c2ccccc2)n(CC(=O)O)c1C | -1.2% | 8.2% | ? | 5.2% | 6.5% | -4.4% | 11.9% | -1.3%
Cc1ccc(S(=O)(=O)N(C)c2ccc(OCC(=O)Nc3ccc(S(C)(=O)=O)cc3)cc2)cc1 | · | ? | -0.4% | · | · | ? | · | -1.0%
